Screens deposited in PubChem by National Center for Advancing Translational Sciences (NCATS).
Sfp PPTase inh – inhibitors of Bacillus subtilis Sfp phosphopantetheinyl transferase; Q9F4F7; Biochemical Sfp PPTase activity, qHTS; Potency, µM, inactives show max response, negative = inhibition, hits mostly inhibitors; 310,000 compounds, 3.5% hits; active = well fitted inhibition curve with a large enough effect; inconclusive = small, poorly fitted or top-dose-only effect, or another doubt; inactive = no such curve, though single readings can be large or run the other way;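 also: the enzyme is Sfp with the accession as filed and its product quenches rhodamine fluorescence; potency is read from the fitted curve at half-maximal effect; 0% = enzyme reaction without inhibitor and -100% = no enzyme wells; top concentration of the series not given in the record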
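After 15 min at room temperature with compound, 15 nM Sfp received 5 uM rhodamine-CoA plus 12.5 uM BHQ-2-ybbR (50 mM Hepes pH 7.6, 10 mM MgCl2). Rate came from the fluorescence difference over 30 min, ex 525/em 598 nm.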
Menin MLL FP FL – displaces fluorescein MLL peptide from human menin; Fluorescence polarization, fluorescein-MLL peptide displacement from menin; FP activity change, % at 61.4 µM; 290,000 tested, under 10 active; AID 1766; inconclusive = falling polarisation curve, or a change in total fluorescence; inactive = total fluorescence flat and polarisation flat or rising; no compound was filed as active; the % refers to the polarisation; negative = inhibition;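 also: % of control where 0% means no effect; inhibitors lower the polarisation; unlabelled MLL peptide was the positive control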
TRPML1 inh – blocks the human TRPML1 channel; 390,000 compounds, 0.02% hits; activity change, negative = inhibition, % (test concentration not listed); TRPML1-inducible cells, Ca2+ dye fluorescence, FDSS; active compounds read low; inhibition of EC80 agonist-evoked calcium signal; AID 624415; Q9GZU1; in the data active means activity change below about -50%; inconclusive means about -30% to -50%; inactive means above about -30%;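 also: stimulus is agonist 54-4 at its EC80 concentration; % is scaled to controls: 0 for no effect and ±100 for the full control effect; compound concentration not given in the record; the text of the record puts the active cut at -80%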
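Calcium fluorescence in TRPML1-DL cells induced overnight with Tet: a 110 s read after compound pin addition, then a 110 s antagonist read after challenge with 54-4 at 4 uM final (EC80).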
ClpP mod – qHTS Assay for Activators of ClpP; purified B. subtilis ClpP, FRET peptide cleavage, 20 min; 340,000 compounds, 1.9% hits; ATP-dependent Clp protease proteolytic subunit (Bacillus subtilis (strain 168)), P80244; Potency, µM (series often up to 57.5 µM), inactives show at the highest dose activity change, negative = active; active = well fitted falling curve with a large enough effect; inconclusive = small, poorly fitted or top-dose-only effect; inactive = no such curve, though single readings can be large or run the other way; also: potency is read from the fitted curve at half-maximal effect; the source files actives as falling curves though it sought activators and does not explain the sign; nearly all actives have a fitted effect of over 65% in size; many hits overshoot -100%
Target sequence (P80244 whole entry, looked up): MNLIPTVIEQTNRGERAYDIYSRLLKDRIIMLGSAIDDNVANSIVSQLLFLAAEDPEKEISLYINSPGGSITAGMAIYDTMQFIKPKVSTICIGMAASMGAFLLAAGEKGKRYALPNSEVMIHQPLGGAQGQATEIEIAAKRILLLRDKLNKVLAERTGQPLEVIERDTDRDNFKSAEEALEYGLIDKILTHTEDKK
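Purified B. subtilis ClpP, 10 microg/mL final in Tris/HCl pH8 with KCl, BSA, glycerol and Tween-20, cleaved an Abz/nitrotyrosine-quenched decapeptide. Fluorescence (ex 320, em 430) was read at 0 and 20 min at room temperature. Delta was normalized to 5.8 microM ADEP and DMSO/no-enzyme controls.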
TRPML1 ag – agonists of human TRPML1 channel. AID 624414. activation, % (no concentration beside the values). 410,000 compounds, 0.12% hits. Q9GZU1. TRPML1-expressing cells, Ca2+ dye fluorescence, FDSS; host cell line not named in the record; reference of the full effect not given here; in the data active = activation above about 50%; inconclusive = about 30% to 50%; inactive = below about 30%; also: 0% is about no effect; the text of the record puts the active cut at 80%
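TRPML1-DL cells, Tet-induced overnight (~16 h, 37 degrees C), loaded 45-90 min at room temperature with Ca8 no-wash calcium dye plus quencher. FDSS fluorescence: 10 s baseline, compound pin-transfer, 110 s agonist read, then EC80 54-4 (4uM final) and 110 s antagonist read.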
TRPV1 PAM – enhances activation of the human vanilloid receptor TRPV1. 320,000 compounds, 0.02% hits. potentiation, % at 8.33 µM. Q8NER1. AID 540277. TRPV1-expressing cells, Fluo-8 calcium influx, capsaicin EC20 potentiation; host cell line not named in the record; control for the full effect not named in the record; active means potentiation above 80%; inconclusive means 30% to 80%; inactive means below 30%; also: 0% is about no effect
Target sequence (Q8NER1 whole entry, looked up): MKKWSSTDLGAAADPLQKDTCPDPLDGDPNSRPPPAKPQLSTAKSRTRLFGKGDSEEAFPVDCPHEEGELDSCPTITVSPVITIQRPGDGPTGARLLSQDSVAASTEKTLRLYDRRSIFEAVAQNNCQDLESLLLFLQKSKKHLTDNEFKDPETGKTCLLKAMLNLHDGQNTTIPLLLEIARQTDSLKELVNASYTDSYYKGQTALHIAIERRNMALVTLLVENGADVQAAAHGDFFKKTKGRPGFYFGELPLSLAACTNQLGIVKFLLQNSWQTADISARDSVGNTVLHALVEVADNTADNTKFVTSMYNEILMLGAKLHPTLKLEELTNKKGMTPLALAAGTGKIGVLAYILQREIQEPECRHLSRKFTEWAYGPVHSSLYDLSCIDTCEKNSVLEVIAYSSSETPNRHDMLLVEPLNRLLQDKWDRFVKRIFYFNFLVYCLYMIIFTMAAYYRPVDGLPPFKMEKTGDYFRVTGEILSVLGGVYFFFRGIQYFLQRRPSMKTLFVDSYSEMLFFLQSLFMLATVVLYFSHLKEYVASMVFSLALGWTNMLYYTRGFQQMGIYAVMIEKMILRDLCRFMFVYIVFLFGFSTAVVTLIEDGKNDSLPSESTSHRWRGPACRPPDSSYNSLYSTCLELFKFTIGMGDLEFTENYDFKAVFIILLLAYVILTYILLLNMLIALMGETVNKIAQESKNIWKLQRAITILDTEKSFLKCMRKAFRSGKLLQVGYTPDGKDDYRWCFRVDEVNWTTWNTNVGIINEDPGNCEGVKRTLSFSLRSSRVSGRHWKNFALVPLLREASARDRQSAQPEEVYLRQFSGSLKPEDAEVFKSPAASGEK
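TRPV1-expressing cells were cultured overnight at 35.5C and loaded with Fluo-8 calcium dye for 40 to 90 min at room temperature. After a 10 s baseline, compound was added and calcium influx was read kinetically for 3 min (ex 480/em 520 nm).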
PINK1 expr mod – modulators of PINK1 expression; Potency, µM (top dose mostly 76.6 µM), inactives show at the highest dose activation (PINK1 increase), most hits filed as activators; PINK1 immunofluorescence, high-content cytometry, 24 h; 410,000 compounds, 0.2% hits; active = well fitted activation curve with a large enough effect; inconclusive = small, poorly fitted or top-dose-only effect; inactive = flat fitted curve, though single readings scatter; cell line not stated here;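 also: potency is read from the fitted curve at half-maximal effect; % of control where 0% means no effect; nearly all actives have a fitted effect of over 65% in size; a mitochondrial uncoupler was the plate control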
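A stable cell line was treated with compounds at 5 concentrations for 24 hours, with CCCP as control. PINK1 levels and mitochondrial localization were measured by immunofluorescence with mitochondrial, cell and nuclear markers after fixation, read by laser-scanning cytometry.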
An asterisk follows results filed as active; ? = inconclusive; . = not tested or not shown; [ ] = another dose, or the depositor's remark.

SMILES | Sfp PPTase inh | Menin MLL FP FL | TRPML1 inh | ClpP mod | TRPML1 ag | TRPV1 PAM | PINK1 expr mod
Cc1cccc(CSc2nc3c(sc4ccccc43)c(=O)n2CCC(=O)NC(C)C)c1 | . | . | 2 | -18% | 0.9 | . | 1.5%
O=C(O)c1cc(NCc2ccc(F)cc2)ccc1N1CCOCC1 | 3% | 0.9 | -2 | 32µM* | 0.9 | 20 | -0.7%
CCc1cc2c(NC(Cc3ccccc3)C(=O)O)ncnc2s1 (stereo not given) | 24% | -8.6 | -4 | -1.3% | 1.2 | 2 | 2.9%
c1cc2nncn2nc1N1CCCC1 | 16% | 4.0 | 5 | 0.6% | -0.5 | 2 | 0.6%
CCC(C)NC(=O)c1ccc(N2CC3CC(C2)c2cccc(=O)n2C3)c(NC(=O)c2c(F)cccc2F)c1 (stereo not given) | . | . | -1 | -1.8% | -0.8 | . | -0.8%
CC(C)NC(=O)Nc1cccc2c1O[C@H](CN(C)S(=O)(=O)c1ccccc1)[C@@H](C)CN([C@H](C)CO)C2=O | . | . | -11 | -2.5% | -0.3 | . | -0.3%
CC(C)CCNC(=O)Cn1c(SCc2cccc(F)c2)nc2ccncc21 | . | . | . | -19% | -0.1 | . | -0.2%
COc1ccc(S(=O)(=O)NCc2cc(=O)n(C)c(=O)n2C)cc1C | 15% | -1.1 | -2 | 2.1% | -0.6 | -1 | 0.0%
COc1ccc(-c2[nH]ncc2CN(C)CCc2c(C)n[nH]c2C)c(F)c1 | 17% | 3.5 | -9 | . | 0.4 | 3 | 2.4%
Cc1ccc(S(=O)(=O)NNC(=O)CC#N)cc1 | 1% | -1.6 | -1 | -0.6% | 0.1 | 0 | 0.3%
NS(=O)(=O)c1cccc(NC(=O)COC(=O)Cc2ccc(S(=O)(=O)N3CCOCC3)s2)c1 | . | . | 24 | -1.9% | 0.0 | . | -0.4%
O=C(NCc1cccs1)c1cccc2c(-c3cccnc3)coc12 | . | . | . | -12% | -0.6 | . | 0.0%
Nc1ccc2c(c1)CC(=O)c1ccccc1S2 | -9% | 2.8 | 3 | 4.5% | 2.1 | ? | 4.9%
CCC(=O)N1CCc2cc(S(=O)(=O)CCC(=O)NC(C)CC)ccc21 (stereo not given) | 14% | -3.1 | -9 | 0.0% | 0.3 | 20 | 0.5%
O=C(Nc1ccccn1)C(F)(F)C(F)(F)C(F)(F)C(F)(F)C(=O)Nc1ccccn1 | 8% | 0.4 | -26 | -6.9% | 0.5 | 2 | 2.8%
CC(Oc1ccccc1)c1ccnc2nc(/N=C/N(C)C)nn12 (stereo not given) | 12% | -0.5 | -20 | 28µM* | 1.4 | -1 | -1.0%[38.3 µM]
CCOC1OC2C(CO)OC(n3cnc4c(N)ncnc43)C2O1 (stereo not given) | 10% | 0.2 | -2 | 0.9% | -0.6 | -4 | -0.1%
NC(=O)CS(=O)(=O)c1ccc(Cl)cc1 | 17% | 2.2 | 23 | . | 1.2 | -11 | 5.7%
CC1CC(C(F)(F)F)n2ncc(C(=O)O)c2N1 (stereo not given) | 3% | -0.7 | 8 | -0.4% | -0.2 | 16 | 3.8%
O=C(OCC(=O)N1CCN(S(=O)(=O)c2ccc(Cl)cc2)CC1)c1cc(Br)ccc1O | . | . | -4 | -4.8% | 0.5 | 3 | -1.5%
CCCOc1ccc([C@@H]2C3CN(C(=O)OCC)CC=C3C(C#N)=C(N)C2(C#N)C#N)cc1OC (stereo not given in full) | 1% | 2.3 | 35 | 1.7% | 0.6 | -5 | 14%[38.3 µM]
CCC(c1nnnn1-c1ccc(OC)cc1)N1CCN(C/C=C/c2ccccc2)CC1 (stereo not given) | . | . | 47 | 2.5% | 0.3 | . | 2.7%
COc1ccc(N2CCN(S(=O)(=O)CCNC(=O)C34CC5CC(CC(C5)C3)C4)CC2)cc1 | 3% | -5.6 | 4 | -2.2% | -0.5 | 26 | 0.9%
CCOCCCNC(=O)c1cn(C)c2ccc(S(=O)(=O)N3CCCC3)cc2c1=O | 9% | . | -3 | -2.0% | -0.2 | 6 | 0.0%
O=C(CN1CCN(CN2C(=O)NC3(CCCCCC3)C2=O)CC1)Nc1cccc(F)c1 | . | . | -3 | 0.0% | 0.3 | 5 | -0.7%
C1=CC(c2cc3ccccc3o2)OC(CCc2ccccc2)C1 (stereo not given) | -9% | 2.0 | -4 | 2.8% | 2.0 | 18 | 19%
COc1cccc(-c2cnc3c(NC=O)cc(-c4cccc(NC(C)=O)c4)cn23)c1 | . | . | . | ? | -1.2 | . | -0.8%
OC(c1ccccc1)c1nc2ccccc2n1Cc1c(F)cccc1Cl (stereo not given) | . | . | 6 | 2.4% | 6.3 | . | 1.9%
Cc1cccc(NC(=O)C2CCCN2C(=O)Oc2ccccc2)c1 (stereo not given) | ? | 3.6 | 13 | -1.2% | 0.2 | 6 | -0.4%[38.3 µM]
COc1ccc(OC)c(NC(=S)NN2CCN(C)CC2)c1 | 0% | 5.6 | 12 | 0.2% | -0.1 | 3 | -1.8%
O=C(COc1ccccc1)Nc1cccc(-c2nnc(-c3ccccc3)o2)c1 | -4% | 4.5 | 22 | 19% | 4.2 | -6 | -1.8%
COc1ccc(C)cc1NC(=O)C1CC(=O)N(CCc2ccc(F)cc2)C1 (stereo not given) | . | . | 1 | . | -0.6 | . | 0.4%
CCC(=O)c1cn([C@H](CCC(OC)OC)CC(=O)OC(C)(C)C)cc1CC | . | . | -6 | -0.5% | 0.5 | -14 | 0.6%
COc1ccc(-c2nnn(CC(=O)NCc3cccs3)n2)cc1OC | 17% | -2.2 | -11 | -4.5% | 0.2 | 5 | -1.5%
COCCNC(=O)c1ccc2ccccc2n1 | -5% | 2.8 | 1 | 1.4% | 2.0 | -3 | -5.0%
CC(NC(=O)c1ccc(F)cc1)c1nc2ccccc2[nH]1 (stereo not given) | . | . | 5 | 1.6% | -0.9 | . | 0.9%
CCc1ccccc1N(CC(=O)NC(C)(C)C)C(=O)CCC(=O)Nc1ccccn1 | 7% | 2.0 | 15 | 0.0% | -0.8 | 0 | 6.8%
Cc1ccc2oc(=O)c(S(=O)(=O)c3ccc(F)cc3)cc2c1 | . | . | 27 | 3.9% | -0.4 | . | 3.5%
CN1CCN(c2ccc(S(=O)(=O)N3CCCCC3)cc2NC(=O)/C=C/c2ccc(Cl)c([N+](=O)[O-])c2)CC1 | . | . | 11 | -1.2% | 0.0 | 3 | -2.3%
C[C@@H]1CN([C@@H](C)CO)S(=O)(=O)c2ccc(Br)cc2O[C@H]1CN(C)C(=O)Cc1cccnc1 | . | . | 23 | -0.3% | 0.4 | . | -0.3%
O=C(Nc1cccc(C(F)(F)F)c1)c1scc2c1OCCO2 | 9% | -5.9 | -6 | . | -0.6 | 5 | 2.2%
Cc1cnc(C(=O)OCC(=O)c2ccc(F)c(F)c2)cn1 | . | . | 3 | . | 0.2 | -5 | 1.0%
O=C(Nc1cccnc1)c1cc(-c2cc(Cl)ccc2O)n[nH]1 | 7% | 0.1 | 7 | 1.8% | 0.1 | 3 | 3.6%
COc1ccc2nc(SCc3ccccc3)nc(C)c2c1 | -4% | 3.5 | 22 | 0.8% | 1.0 | 2 | 9.9%
Cc1ccc(-c2nc3ccccc3o2)cc1NC(=S)NC(=O)c1cccs1 | ? | 6.1 | 16 | -2.2% | 0.4 | 6 | 7.6%

Full records from above. Order of values: Sfp PPTase inh, Menin MLL FP FL, TRPML1 inh, ClpP mod, TRPML1 ag, TRPV1 PAM, PINK1 expr mod
`CCc1ccccc1N(CC(=O)NC(C)(C)C)C(=O)CCC(=O)Nc1ccccn1` as listed: 7%, 2.0, 15, 0.0%, -0.8, 0, 6.8%
`CCC(=O)c1cn([C@H](CCC(OC)OC)CC(=O)OC(C)(C)C)cc1CC` as listed: ., ., -6, -0.5%, 0.5, -14, 0.6%

The results go on.
SMILES | Sfp PPTase inh | Menin MLL FP FL | TRPML1 inh | ClpP mod | TRPML1 ag | TRPV1 PAM | PINK1 expr mod
Cc1cc(C)n(-c2nc(SCCN(C)C)c3c4c(sc3n2)COC(C)(C)C4)n1 | 8% | -1.0 | 2 | ? | 0.1 | 16 | 1.6%[38.3 µM]
OC(Cc1ccc2ccccc2n1)c1c(Cl)cccc1Cl (stereo not given) | . | . | . | -0.4% | 0.0 | . | -0.2%
COc1ccc(S(=O)(=O)CC(=O)Nc2nnc(C(F)(F)F)s2)cc1 | 3% | . | -11 | 1.5% | -0.1 | 15 | 1.9%
Cn1/c(=N/NC(=O)c2cccc(OC(F)F)c2)sc2ccccc21 | 4% | 3.8 | 15 | -2.9% | 0.3 | -5 | -1.1%
COc1ccccc1NC(=O)CSc1nnc2ccccn12 | . | . | 31 | -10% | 0.5 | 0 | -0.3%
COc1ccc2[nH]c3c(c2c1)CCN1C(=O)C(CC(=O)NCCCN(C)C)C[C@H](C(=O)N2CCCCC2)[C@@]31CCc1ccccc1 (stereo not given in full) | . | . | -12 | -1.6% | -0.4 | . | 4.2%
O=C(COc1ccc(Cl)cc1Cl)NN1C(=O)/C(=C\c2ccc(Cl)cc2)SC1=S | 10% | 1.2 | -8 | . | -0.6 | 2 | -0.3%
COc1ccc(NC(=O)CN(C)C(=O)c2cn(-c3ccccc3)nc2-c2cccs2)cc1 | . | . | 9 | -18% | -0.2 | -9 | -2.2%
Cc1ccc(SCc2nc(-c3ccccc3)no2)cc1 | -4% | 5.5 | 59 | -1.5% | 1.1 | 3 | 5.7%
CCc1ccc(Nc2nc3ccccc3nc2NS(=O)(=O)c2ccccc2)cc1 | . | . | 20 | ? | 0.7 | . | -4.3%
COCCCNC(=O)c1ccccc1NS(=O)(=O)c1ccc(C)cc1 | 5% | -0.6 | -6 | -29% | 0.1 | -8 | -1.5%
COC(=O)Cc1ccc(NC(=S)N2CCN(C)CC2)cc1 | -15% | -1.9 | 1 | . | -0.1 | 10 | 1.0%
CCOc1ccc(CCNC(=O)c2ccc3c(Cl)c4c(nc3c2)CCCC4)cc1 | . | . | -2 | -7.3% | 1.7 | . | 0.2%
COc1ccc(Nc2nc(N3CCCC3)c3ccccc3n2)cc1 | ? | -0.8 | 13 | 1.3% | -1.8 | -1 | -2.7%
